Bioassay records deposited in PubChem BioAssay by National Center for Advancing Translational Sciences (NCATS).
Vaccinia Venus: inhibitors of vaccinia virus (Venus reporter); Vaccinia virus Venus reporter expression, fluorescence; Potency, µM (top dose mostly 36.5 µM), without a hit: at the top dose activity change, negative = inhibition, usual class: inhibitors; 330,000 tested, 0.46% active; AID 720580; active means well fitted inhibition curve with a large enough effect; inconclusive means small, poorly fitted or top-dose-only effect; inactive means no such curve, though single readings can be large or run the other way; tested in A549 cells; also: nearly all actives have a fitted effect of over 30% in size; inactives centre near -10
VACV mCherry inh: vaccinia inhibition (mCherry reporter). Vaccinia virus mCherry reporter infection, fluorescence; about a quarter of the inactives have no number. Potency, µM (doses to about 36.5 µM), for inactives: at the top dose activity change, negative = inhibition, most hits filed as inhibitors. 310,000 tested, 0.63% active. AID 720579; active = well fitted inhibition curve with a large enough effect; inconclusive = small, poorly fitted or top-dose-only effect; inactive = no such curve, though single readings can be large or run the other way; tested in A549 cells; also: nearly all actives have a fitted effect of over 35% in size; inactives centre near -10
* marks the source's active call; other numbers are inactive results; i = inactive; ? = inconclusive; / = no result given; & = joins results of further samples; ! = a repeat was not active; [ ] = dose if it differs, or a comment. % is scaled to controls: 0 for no effect and ±100 for the full control effect; potency is read from the fitted curve at half-maximal effect.

Compound,Vaccinia Venus,VACV mCherry inh
CC1CC(=O)Nc2ccccc2N1S(=O)(=O)c1cccc(Cl)c1 (centres undefined),-12%,-20%
COc1cc(CNc2ncnc3c2ncn3[C@H]2CN(Cc3cc(OC)c(OC)c(OC)c3)C[C@@H](CO)O2)cc(OC)c1OC,3%,-4%
CCCCn1nnnc1C(c1ccccc1)N1CCN(c2ccc(OC)cc2)CC1 (centres undefined),0%,i
O=S(=O)(Nc1ccc(Cl)cc1)c1cccc2cccnc12,-19%,i
COC(=O)c1cc(NC(=O)c2cc3c(-c4ccccc4F)nn(C)c3s2)cc(C(=O)OC)c1,-3%,10%
Cc1cnc(C(=O)Nc2ccccc2-c2nnn(CC(=O)NC3CCCC3)n2)cn1,-7%,-6%
C=CCOc1ccc(C(=O)Nc2ccc3c(c2)n(C)c(=O)n3C)cc1,0%,i
CCC(C)N1C(=O)c2ccccc2C1C(=O)NC1CCCCCC1 (centres undefined),1%,-10%
CC(=O)Nc1nnc(S(N)(=O)=O)s1,-12%&-9%,-11%
COc1c(Br)cc2c(C)c(C(=O)N3CCOCC3)oc2c1Br,-29%,/
CN(C)S(=O)(=O)c1ccc2oc(SCC(N)=O)nc2c1,?,/
c1ccc(NN(Cc2ccncc2)c2ccccc2)cc1,-11%,-18%
Cc1ccc2[nH]c3c(=O)n(Cc4ccco4)cnc3c2c1,-1%,10%
O=C(NCCc1cscn1)C1CCC(=O)N(Cc2ccc(Cl)cc2)C1 (centres undefined),-10%,i
COc1ccc([C@H]2/C=C\CN(C(=O)C3CCCC3)[C@@H](C)C(=O)N2Cc2ccc(F)cc2)cc1,-3%,-7%
Nc1cc([N+](=O)[O-])ccc1O,-19%,i
CC(NC(=O)CN1CCc2ccccc21)c1ccccc1 (centres undefined),-6%,-5%
Cc1c(C(=O)N(C)C2CCCCC2)sc2ncnc(N3CCN(c4ccccc4F)CC3)c12,-15%,i
Cc1cc(Nc2ccc(N3CCOCC3)cc2)c2cccc(C)c2n1,?,-7%
CCCc1nnc(NC(=O)CSc2nnc3c4ccccc4n(CC)c3n2)s1,-5%,-12%
Cc1ccc(NC(=O)N2CCC(NC(=O)c3cccc(F)c3)CC2)cc1,-11%,-19%
Nc1nc(N)c2[nH]c(=S)[nH]c2n1,-7%,0%
CN(C(=O)c1ccc(NC(=O)Cc2cccc(NC(=O)C3CCCN(S(=O)(=O)c4cccc([N+](=O)[O-])c4)C3)c2)cc1)C1CC1 (centres undefined),-13%,?
CCc1nnc(NC(=O)CSc2nnc(CCc3nc4ccccc4[nH]3)n2C)s1,-5%,-18%
CCOC(=O)C1CCN(C(=O)COC(=O)C2CCN(S(=O)(=O)c3ccc4c(c3)OCCO4)CC2)CC1,-15%,-14%
C[C@@H]1C(c2ccccc2)=NN(c2ccc(Br)cc2)[C@H]1C(=O)N1CCOC1=O,?,?
CCOC(=O)c1ccc(NC(=O)COc2ccc(CNC3CCCCC3)cc2OC)cc1,-17%,-22%
O=C1C2CCCC1C(N1CCCCC1)CC2 (centres undefined),-10%,-9%
Cc1ccc(C)c(N2CCN(C(=O)Cn3cnc4sc(C)c(S(=O)(=O)N5CCN(c6ncccn6)CC5)c4c3=O)CC2)c1,-22%,-35%
COc1ccccc1OCCCCCCN1CCN(C)CC1,6%,i
COc1cc2c(cc1OC)C(NC(=O)C(F)(F)F)CNC2=O (centres undefined),-20%,i
Cc1cc(NC(=O)CCCn2nc([N+](=O)[O-])cc2C)no1,15%,-18%
CCc1ccc(NCc2cc3ccc(OC)cc3n(CC(=O)Nc3cccc(Cl)c3C)c2=O)cc1,-1%,-11%
COc1cccc(N2C(=O)C(CC(=O)Nc3cccc(F)c3)N(C(C)C)C2=O)c1 (centres undefined),-5%,-2%
COc1cccc(C(NC(C)=O)c2nc(-c3ccccc3OC)cs2)c1 (centres undefined),-17%,?
C=Cc1ccc(Cn2c(C(=O)O)c(CNCCc3ccco3)c3ccc(C)cc32)cc1,-8%,-4%
COc1ccc(C(C#N)c2ccc(=O)[nH]n2)cc1 (centres undefined),7%,-4%
O=[N+]([O-])c1ccc(-c2cn(-c3ccc(Cl)cc3)cn2)cc1,-3%,9%
COc1ccc(NC(=O)CSc2nnc(-c3ccccc3)n2Cc2ccco2)cc1OC,-24%,-4%
COc1ccc2c(c1)CC(C(=O)Nc1cc(Cl)ccc1C)CO2 (centres undefined),-11%[7.34 µM],-15%[7.34 µM]
COc1ccc(CNC(=O)C2=CC(c3ccc(C)cc3)=NS(=O)(=O)N2C)cc1,0%,i
FC(F)(F)c1cccc(NCc2cn3cccnc3n2)c1,-24%,-22%
CCCCn1c(N)c(N(Cc2ccccc2OC)C(=O)CC2OC(=O)c3ccccc32)c(=O)[nH]c1=O (centres undefined),-8%,i
COc1ccc(-c2c(C)nn3c4c(cnc23)C(=O)CC(c2ccccc2)C4)cc1 (centres undefined),-7%,-14%
Cc1cc(C)cc(-n2c(SCC(=O)NCc3ccco3)nc3c([nH]c4ccccc43)c2=O)c1,4%,1%
COc1ccccc1-n1c(=O)c(C#N)c(-c2ccc([N+](=O)[O-])cc2)c2cc(C(=O)c3cc(F)ccc3O)cnc21,-10%,-14%
CC(C)(CCC(=S)N1CCOCC1)C1CCCCC1,-10%,-5%
CCCCc1n[nH]c(=S)n1Cc1ccc(Cl)cc1,-8%,-13%
Cc1c(-c2ccc(Br)cc2)c(=O)oc2ccc(OC(=O)N3CCOCC3)cc12,-2%,-9%
O=S(=O)(c1ccc(F)c(F)c1F)N1CCN(C(=S)NCc2ccccc2)CC1,-34%,-24%

Quoted at random: two compounds from above, in no set order.
Compound,Vaccinia Venus,VACV mCherry inh
COc1ccc2c(c1)CC(C(=O)Nc1cc(Cl)ccc1C)CO2 (centres undefined),-11%[7.34 µM],-15%[7.34 µM]
COc1cc2c(cc1OC)C(NC(=O)C(F)(F)F)CNC2=O (centres undefined),-20%,i

Returning to the listing, repeating the two entries before the break.
Compound,Vaccinia Venus,VACV mCherry inh
Cc1c(-c2ccc(Br)cc2)c(=O)oc2ccc(OC(=O)N3CCOCC3)cc12,-2%,-9%
O=S(=O)(c1ccc(F)c(F)c1F)N1CCN(C(=S)NCc2ccccc2)CC1,-34%,-24%
C=CCn1sc(=N)c(C#N)c1N,8%,?
CC(C)(C)c1ccc(C(=O)N2CCC(NC(=O)c3ccccc3)CC2)cc1,-9%,-5%
C=CCn1c(SCC(=O)Nc2ccc(N3CCOCC3)cc2)nnc1-c1ccco1,-6%,-22%
COc1ccccc1CNC(=O)c1ccc2c(c1)nc(C)n2-c1cccc(C)c1,-9%,-11%
CC(C)Oc1ccc(C(=O)OCC(=O)c2ccc[nH]2)cc1,-8%,-13%
CNC(=O)C1CN(C(=O)c2nn(Cc3ccccc3)c(=O)c3ccccc23)c2ccccc2O1 (centres undefined),-21%,-17%
O=C(NN=C1C2CC3CC(C2)CC1C3)c1ccncc1,-3%,-2%
O=C(CN1CCN(S(=O)(=O)N2CCCCCC2)CC1)Nc1ccc(F)cc1,-2%,i
CCCCOC(=O)c1c(C)oc2ccc(NS(=O)(=O)c3ccc4c5c(cccc35)C(=O)N4)cc12,-6%,-26%
CCn1nnc(NC(=O)c2cc(Cl)c(OC)c(Cl)c2)n1,0%,-6%
Cc1sc2ncnc(Sc3nnnn3-c3ccccc3)c2c1C,?,11µM*!
c1ccc2c3c(cc(N4CCOCC4)c2c1)OC1(N2CCOCC2)CCCCC1O3 (centres undefined),-4%,i
O=C(CN1C(=O)CCC1=O)Nc1nc2c(F)cc(F)cc2s1,-6%,i
Cc1ccc(C2NCCS2)cc1 (centres undefined),-16%,-7%
O=C(CCc1cccc(Cl)c1)NC1CCCN(Cc2ccccc2F)C1 (centres undefined),-17%,-16%
COc1cccc(C(=O)Nc2cccc3c2ccc2cccn23)c1,-2%,3%
OCCc1ccc(NCCc2ccco2)cc1,-1%,6%
CCOC(=O)N1CCN(C(=O)CCCCCn2c(=S)[nH]c3ccsc3c2=O)CC1,-5%,-7%
C=CCc1c(C)nc(C)nc1N/N=C/c1ccccc1,14%,/
O=C1c2ccccc2NC2(CCCC2)N1NS(=O)(=O)c1ccccc1,-15%,-11%
Cc1ccccc1Cn1ccc(NC(=O)c2cnn3c2NC(c2ccccc2)CC3C(F)(F)F)n1 (centres undefined),-24%,-3%
CCOC(=O)c1ccc(N2C(=O)CC(N3CCOCC3)C2=O)cc1 (centres undefined),9%,-6%
COc1ccc(-c2csc(Nc3ncccc3C)n2)cc1OC,-22%,/
O=C1NC[C@H](CCCCN2C[C@H](Cc3ccc(O)cc3)N(Cc3ccccc3)C(=O)C2=O)N(CCc2ccc(O)cc2)C1=O,12%,28%
O=C(CSc1nnc(COc2ccccc2Cl)o1)NC(=O)NCc1ccco1,-11%,-19%

The list continues.
Compound	Vaccinia Venus	VACV mCherry inh
O=C(CNC(c1ccccc1)c1ccccc1)Nc1ccccc1-c1ccccc1	-19%	-7%
CCOC(=O)CC1C(=O)NCCN1C(=S)Nc1ccccc1 (centres undefined)	-9%	-2%
COc1ccc(-c2nc3n(n2)C(c2ccncc2)C(C(N)=O)=C(C)N3)cc1 (centres undefined)	-6%	i
CCn1c(SCc2cccc(F)c2)nc2c(c1=O)SCC2	-8%	i
Cc1cc(/C=N/NC(=O)Cn2c3ccccc3c(=O)c3ccccc32)c(C)n1-c1ccccc1	-21%	-9%
CCOc1ccc(NC(=O)CC2NCCNC2=O)cc1 (centres undefined)	-7%	-18%
CCCC(=O)Oc1ccc(C2NC(=O)c3ccccc3O2)cc1OC (centres undefined)	-14%	-8%
O=C(CSc1ccccc1)N1CCc2ccccc21	-22%	/
CCSC1=NCCN1C(=O)c1ccc(S(=O)(=O)N(CC)CC)cc1	-7%	i
CC(=O)Nc1ccn(Cc2c(F)cccc2Cl)n1	-6%	-9%
COc1ccc(-c2cc3ccc(O)c(CN4CCC(C)CC4)c3oc2=O)cc1OC	-13%	-1%
COc1cccc(Cn2nc(C(=O)O)c3ccccc3c2=O)c1	-14%	i
Cc1c(C(=O)N2CCCC2)sc(NC(=O)c2ccccc2)c1C#N	-2%	-10%
CCN(CC(=O)Nc1c(F)cccc1F)C(=O)CNC(=O)c1cccs1	-12%	-13%
CCCN1CCN(CCCNC(=O)CN2C(=O)COc3ccc(C(C)(C)C)cc32)CC1	-4%	i
COc1ccc(C(c2nnnn2-c2c(C)cccc2C)N2CCC(n3c(=O)[nH]c4ccccc43)CC2)cc1 (centres undefined)	-29%	-21%
COc1ccc(Cc2c(C(C)(C)C)nc3cc(C)c(Br)c(C)n23)c(C)c1	-2%	17%
O=C(Cn1cc(C(=O)c2ccco2)c2ccccc21)NC1CC1	3%	3%
O=C(CN1CCCN(Cc2ccccc2Cl)S1(=O)=O)Nc1ccc2c(c1)OCCO2	0%	-4%
COc1ccc(Nc2nc3c(S(=O)(=O)c4ccccc4)nnn3c3ccc(Cl)cc23)cc1	-24%[7.34 µM]	-25%[7.34 µM]
COc1ccc(OC)c(CN2CCN(CC(=O)Nc3ccccc3C(=O)NC3CC3)CC2)c1	-5%	-8%
CCC(=O)N1N=C(c2cccc(NS(C)(=O)=O)c2)CC1c1cccs1 (centres undefined)	-11%	-28%
CC(C)OC(=O)CC(=O)CSc1nc2c(cc1C#N)CCC2	-17%	-4%
COc1ccc(-c2cc(COc3ccccc3)on2)cc1	-3%	i
COc1ccc(C(=O)NCCc2c[nH]c3ccccc23)cc1[N+](=O)[O-]	-17%	-2%
CN(C)C(=O)CCc1ccc2c3c([nH]c2c1)[C@]1(C)[C@@H](C(=O)N2CCOCC2)C[C@H](CC(=O)NCCC2=CCCCC2)C(=O)N1CC3	-10%	i
O=C(O)CCCC(=O)Nc1ccc(C(=O)N2CCCCC2)c(Cl)c1	-2%	4%
Cc1ncsc1CCOC(=O)C1C2CC3CC(C2)CC1C3 (centres undefined)	-16%	0%
Cc1cccc(C(=O)c2ccccc2C(=O)O)c1O	5%	0%
O=C(Cn1c(=O)oc2cc(S(=O)(=O)N3CCCCCC3)ccc21)NC1CCCCC1	-9%	8%
O=[N+]([O-])c1cc([N+](=O)[O-])c(Oc2cncc(Cl)c2)cc1NC1CCCCCCC1	-29%	?
Cc1ccc2cc(C)c(SCC(=O)Nc3ccc(S(=O)(=O)N4CCCC4)cc3)nc2c1	-13%	i
COc1cc(NC(=S)N2CCC(C(N)=O)CC2)cc(OC)c1	-4%	-17%
O=C(NC1CCN(S(=O)(=O)c2ccccc2)CC1)C1CCCCC1	-13%	i
O=C(NCC(=O)N1CCN(S(=O)(=O)c2ccccc2)CC1)c1ccc(Br)o1	-7%	-20%
Nc1ccc(Cl)cc1C(=O)c1ccccc1	-8%	i
CC(C)(C)CC(=O)Nc1cc(S(=O)(=O)N2CCCCCC2)ccc1Cl	-13%	-15%

4 entries out of the list, ordered by count of non-hydrogen atoms, low to high.
Compound	Vaccinia Venus	VACV mCherry inh
Nc1ccc(Cl)cc1C(=O)c1ccccc1	-8%	i
COc1cc(NC(=S)N2CCC(C(N)=O)CC2)cc(OC)c1	-4%	-17%
O=C(NC1CCN(S(=O)(=O)c2ccccc2)CC1)C1CCCCC1	-13%	i
CC(C)(C)CC(=O)Nc1cc(S(=O)(=O)N2CCCCCC2)ccc1Cl	-13%	-15%
